Ecoli growth: E. coli growth inhibition, primary screen, OD600; Escherichia coli growth, 23 h; stronger effect = lower value; OD600 absorbance (no concentration beside the values); 0.21% of 330,000 active; AID 1053175, 2014;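 active means OD600 absorbance below the run mean of sample wells minus 3.6 SD, in any replicate, cut at about 0.56 in these data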;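 further: stock transfer was 300 nL into about 60 µL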
A1 inh: caspase 3/7 activation in MEF A1-2A-BIM cells, primary screen, A1 inhibitor project, cell-based, luminescence, HTS | caspase activation, % (test concentration not listed) | 0.066% of 330,000 active | Caspase-Glo 3/7 luminescence, 3 h; percent of clofoctol response, vehicle zero | AID 2462, 2010;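 active means over half of replicate activation scores above 10%, or exactly half above 10 with the replicate mean above 10; inconclusive means replicate mean below 10 yet half the replicates above 10; inactive means over half of replicates below 10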;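 further: wells of about 30 µL received 50 nL stock; many hits fall short of the cut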
UCH37 DUB inh: inhibitors of human UCH37 deubiquitinase, primary screen, biochemical, Ub-AMC cleavage, fluorescence; Ubiquitin carboxyl-terminal hydrolase isozyme L5 (Homo sapiens), Q9Y5K5; purified proteasome/UCH37; inhibition, % (test concentration not listed); 0.33% of 330,000 active;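 active means mean of two replicates above 20%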;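 further: 0% = compound-free wells with enzyme and 100% = wells lacking proteasome; stock transfer was 100 nL into about 20 µL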
Target sequence (Q9Y5K5 whole entry, looked up): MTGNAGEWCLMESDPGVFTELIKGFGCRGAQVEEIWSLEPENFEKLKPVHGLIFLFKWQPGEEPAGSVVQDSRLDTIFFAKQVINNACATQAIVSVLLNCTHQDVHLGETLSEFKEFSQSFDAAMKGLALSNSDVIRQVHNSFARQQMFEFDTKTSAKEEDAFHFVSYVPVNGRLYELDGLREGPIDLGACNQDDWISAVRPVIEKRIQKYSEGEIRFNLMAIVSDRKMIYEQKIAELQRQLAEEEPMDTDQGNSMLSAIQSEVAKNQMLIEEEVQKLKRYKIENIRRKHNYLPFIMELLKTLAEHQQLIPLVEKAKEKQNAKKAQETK
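Material: human UCH37 enzyme supplied as purified proteasome complex / Amount: 0.15 nM proteasome as dispensed / Buffer or medium: pH 7.4 Tris-HCl (50 mM) with ovalbumin, ATP-MgCl2, DTT / Times: preincubation 30 min, reaction 25 min, room temperature / Technique: AMC fluorescence from Ub-AMC cleavage, excitation 355 nm, emission 460 nm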
rRNA inh HTS: reduced GFP signal of wild-type E. coli, primary screen, bacterial rRNA inhibitor project, GFP/RFP fluorescence, OD600, single point; E. coli WT GFP vs humanized-ribosome RFP mutants, 24 h; stronger effect = lower value; DMSO median 0, no signal -100; GFP signal change (wild-type ribosome), % (test concentration not listed); 1.6% of 350,000 active;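 active means significant combined selectivity score with lowered wild-type GFP, culture density cut under 30%, mutant RFP and density less affected; inactive means any of these conditions unmet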; further: one replicate is shown; some compounds called inactive have numbers as strong as hits
Beta cell apopt: inhibitors of cytokine-induced beta cell apoptosis, primary screen, luminescence | INS-1E cytokine-induced death, ATP luminescence, 48 h; percent of positive-control rescue, neutral wells zero | protection from apoptosis, % (concentration not given with the values) | 0.8% of 300,000 active;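 active means all replicates at 75% or more, or half of them and the mean; inconclusive means half reach 75% but not the mean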;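 further: 0% = cytokine-treated negative control wells and 100% = positive control rescue; higher means more ATP so stronger rescue from cytokine killing; wells of about 40 µL received 100 nL stock; the first replicate is given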
FGF22 binding: binders of human FGF22 protein, primary screen, FGF22 synaptogenesis inhibitor project, biophysical, thermal shift, single point | recombinant FGF22 thermal shift, SYPRO orange fluorescence; percent of sucrose octasulfate shift, DMSO zero | calls only at 9.99 µM | 1.5% of 340,000 active | AID 651658, 2012;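 active means melting point raised past a set limit in the mean and every replicate; inconclusive means no clear call; three in four hits are not shown here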
Target sequence (Q9HCT0 whole entry, looked up): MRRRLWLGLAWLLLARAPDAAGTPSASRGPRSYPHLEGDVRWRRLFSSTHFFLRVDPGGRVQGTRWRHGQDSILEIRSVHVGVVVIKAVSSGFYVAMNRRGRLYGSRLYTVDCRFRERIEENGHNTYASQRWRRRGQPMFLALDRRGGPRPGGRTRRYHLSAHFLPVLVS
MLL AF4-AF9 inh: inhibitors of AF4 peptide binding to AF9, primary screen, biochemical, AlphaScreen, biotin-AF4 peptide, FLAG-AF9, single point; AID 651704, 2012; inhibition, % at 10 µM; Protein AF-9 (Homo sapiens), P42568; 0.47% of 350,000 active;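 active means every replicate reaching a set inhibition limit, whatever the replicate mean, cut at about 25% in these data; inconclusive means mean inhibition reaches that limit but some replicates miss it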;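 further: 0% = plate neutral control median and 100% = total signal loss; the record names both 10 and 1 µM as test concentration; the first replicate is given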
Target sequence (P42568 whole entry, looked up): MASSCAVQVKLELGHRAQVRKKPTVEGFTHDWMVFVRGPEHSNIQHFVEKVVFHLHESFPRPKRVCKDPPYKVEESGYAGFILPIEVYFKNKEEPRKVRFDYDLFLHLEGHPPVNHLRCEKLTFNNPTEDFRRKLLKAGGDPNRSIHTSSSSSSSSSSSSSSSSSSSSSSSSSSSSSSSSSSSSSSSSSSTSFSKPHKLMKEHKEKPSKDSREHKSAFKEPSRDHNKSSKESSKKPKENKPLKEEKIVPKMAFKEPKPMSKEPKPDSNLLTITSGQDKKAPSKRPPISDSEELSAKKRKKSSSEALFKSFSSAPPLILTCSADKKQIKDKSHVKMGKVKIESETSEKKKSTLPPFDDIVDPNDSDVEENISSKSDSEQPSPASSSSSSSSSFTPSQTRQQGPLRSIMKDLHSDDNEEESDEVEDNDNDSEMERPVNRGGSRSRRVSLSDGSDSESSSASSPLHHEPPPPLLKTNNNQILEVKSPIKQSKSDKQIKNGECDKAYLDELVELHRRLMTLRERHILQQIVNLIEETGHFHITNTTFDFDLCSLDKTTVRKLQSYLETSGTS
T cruzi repl: inhibitors of intracellular T. cruzi growth, primary screen, luminescence, NIH3T3 host cells; T. cruzi beta-gal in NIH3T3, 90 h; inhibition, % (concentration not given with the values); 1.4% of 300,000 active; AID 1885, 2009;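 active means mean inhibition across valid replicates above about 55%, limit read from the data; inconclusive means mean below that limit but half or more replicates reach it; inactive means mean below it, under half of replicates reach it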;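 further: signal also drops with host cell toxicity which is not excluded here; 0% = plate median of DMSO wells and 100% = zero luminescence signal; higher percent means less beta-gal luminescence so fewer parasites; stock transfer was 50 nL into about 50 µL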
rRNA inh HTS OD600: second read-out of rRNA inh HTS, no call of its own (marks repeat the call); OD600 change, %; measured here: OD600 growth;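 optical density of the mix in the first replicate; 0 = DMSO median and -100 = no signal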
rRNA inh HTS RFP: second read-out of rRNA inh HTS, no call of its own (marks repeat the call); RFP signal change, %; measured here: RFP humanized mutant strains;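 first replicate; 0 = DMSO median and -100 = no signal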
* marks the source's active call; other numbers are inactive results; i = inactive; u = inconclusive; x = not tested or not shown.

SMILES | Ecoli growth | A1 inh | UCH37 DUB inh | rRNA inh HTS | rRNA inh HTS OD600 | rRNA inh HTS RFP | Beta cell apopt | FGF22 binding | MLL AF4-AF9 inh | T cruzi repl
CCCS(=O)(=O)N1CCN(S(=O)(=O)c2ccc(F)cc2)CC1 | 0.731 | 0.9 | 0.7 | x | x | x | -3.3 | x | x | -3.9
c1ccc(CSc2nnc(-c3cccnc3)o2)cc1 | 0.736 | -1.8 | 5.9 | x | x | x | -4.9 | x | x | -23.5
Nc1nc2n(n1)C(c1ccco1)CC(c1ccc(Cl)cc1Cl)N2 (centres undefined) | 0.697 | 0.0 | 4.9 | x | x | x | 8.2 | x | x | 16.1
CN(CC(=O)Nc1ccccc1C(=O)NC1CC1)Cc1ccc(Cl)cc1 | 0.696 | -0.7 | -0.3 | x | x | x | -3.4 | i | 1.6 | x
CNS(=O)(=O)c1cn(CC(=O)NCc2ccc(OC)cc2)cc1S(=O)(=O)NC | 0.661 | 0.2 | 0.8 | 12.8 | 5.0 | 0.8 | -2.3 | i | -8.6 | -1.5
COc1ccc(CCn2c(=N)c(S(=O)(=O)c3ccc(Cl)cc3)cc3c(=O)n4ccccc4nc32)cc1 | 0.686 | -1.2 | -4.2 | 14.6 | 6.8 | 3.8 | 9.3 | i | 1.4 | 14.1
Cc1cccc(-c2cc3nc(C)cc(C)n3n2)c1 | 0.646 | 0.7 | -30.0 | -0.3 | -2.2 | -2.6 | 2.8 | i | -3.3 | -0.6
Cc1nc(=O)c(-c2ccccc2)c(C)n1-c1ccccc1O | 0.75 | 2.0 | -0.1 | x | x | x | 0.6 | x | x | -1.6
Cc1ccc(-n2c(=O)[nH]cc(C(=O)N3CCc4ccccc43)c2=O)cc1 | 0.672 | -1.0 | 1.2 | x | x | x | -1.2 | x | x | -9.2
COc1ccccc1OCCNC1CCCC1 | 0.67 | -0.6 | 0.1 | x | x | x | -2.0 | x | x | -1.2
CCCCCC(O)CCc1n[nH]c(=S)n1-c1ccccc1 (centres undefined) | 0.685 | -0.7 | -0.9 | x | x | x | -1.1 | x | x | 1.1
CN1/C(=C\C(=O)CSc2ncn[nH]2)C(C)(C)c2ccccc21 | 0.696 | 0.3 | 3.5 | -7.8 | -11.0 | 33.3 | -0.5 | i | -10.3 | 2.4
COc1ccc(OCCC(=O)OCC(=O)Nc2cccc(S(=O)(=O)N3CCCCC3)c2)cc1 | 0.717 | -0.5 | -0.6 | -5.9 | 1.0 | 6.0 | -4.4 | i | -1.5 | x
COC(=O)C1=C(N)Oc2cc(C)oc(=O)c2C1c1cccnc1 (centres undefined) | 0.703 | -1.5 | 5.9 | x | x | x | -6.6 | x | x | -15.2
S=C(NCc1cccs1)Nc1ccccc1Cl | x | 2.2 | 2.4 | x | x | x | -2.6 | x | x | 1.6
COc1ccccc1N1C(=NC(=O)C(C)Oc2ccccc2)SC2CS(=O)(=O)CC21 (centres undefined) | 0.683 | -0.4 | 1.9 | 5.5 | -1.0 | 0.1 | -6.8 | i | -1.4 | 1.4
COCC(=O)Nc1ccccc1C(=O)NC(C)C | 0.737 | 1.2 | 2.3 | x | x | x | -0.9 | x | x | -13.9
COc1ccc(-c2nnc(OC)c3ccccc23)cc1 | 0.669 | -0.7 | 3.6 | -20.2 | -14.2 | -0.9 | -3.3 | i | -4.6 | -1.1
COc1ccc(C(=O)/C=C/c2ccc(OC3CSC3)cc2)cc1 | 0.654 | -2.0 | 5.7 | x | x | x | 1.8 | x | x | 10.7
COc1ccc(N2CCN(C(=O)CN(C)S(=O)(=O)c3cnc[nH]3)CC2)cc1 | 0.679 | -0.7 | 2.5 | x | x | x | -5.6 | x | x | 4.1
COc1ccc(S(=O)(=O)N2CCOCC2)cc1NC(=O)CSc1nnnn1C1CC1 | 0.722 | 0.4 | 1.0 | x | x | x | 3.5 | i | -0.6 | x
CNc1oc(Cc2ccccc2)nc1S(=O)(=O)c1ccccc1 | 0.652 | 0.9 | 2.3 | x | x | x | -5.4 | x | x | 0.7
COc1ccc(/C=C/C(=O)NC(=S)Nc2ccc(S(=O)(=O)N=C(N)N)cc2)cc1OC | 0.734 | 1.5 | -6.7 | 11.4 | 13.1 | -1.2 | -7.5 | i | 2.5 | -15.4
O=[N+]([O-])c1ccc(Cl)c(S(=O)(=O)Nc2cccc(S(=O)(=O)NC3=NCCC3)c2)c1 | 0.692 | 0.3 | 3.2 | x | x | x | -4.1 | i | 4.3 | x
Cn1nc(C(F)(F)F)c(-c2cccc(C(F)(F)F)c2)c1NC(=O)Nc1ccc(F)cc1 | 0.659 | u | 5.2 | -28.0* | -16.4* | -1.9* | 19.2 | i | -1.2 | 48.3
COc1ccc(CCN(C)Cc2ccc(OCc3ccccc3)c(OC)c2)cc1OC | 0.635 | 0.2 | 2.9 | x | x | x | -2.1 | x | x | 53.9
S=C(Nc1ccc2nccnc2c1)N1CCOCC1 | 0.682 | -3.9 | -2.5 | 2.7 | -2.7 | -2.1 | 0.4 | i | -0.8 | -19.8
COCCn1c(C)cc(C(=O)COC(=O)CNC(=O)c2ccco2)c1C | 0.614 | 1.1 | 1.2 | -9.3 | -14.2 | -1.0 | -6.8 | i | -5.3 | x
CCOC(=O)N1CCN(Cc2nc3cc(NC(=O)C(C)C)ccc3n2CC)CC1 | 0.658 | 0.0 | 2.3 | 10.8 | 3.1 | -8.4 | -1.6 | i | -0.5 | -1.7
Cn1c(NC(=O)C[n+]2cc(-c3ccc(Cl)cc3)n3c2CCC3)cc(=O)n(C)c1=O | 0.686 | 0.3 | 8.9 | 15.2 | 0.6 | -1.8 | 0.1 | i | -3.0 | 0.1
O=C1CC(N2CCN(c3cccc(C(F)(F)F)c3)CC2)C(=O)N1c1ccccc1F (centres undefined) | 0.716 | -0.1 | -1.9 | x | x | x | -3.9 | x | x | 3.6
COc1ccccc1C(=O)COC(=O)COc1ccc(C#N)cc1 | 0.699 | -0.5 | 2.3 | 4.2 | 9.0 | 2.9 | -2.5 | i | -0.6 | x
Cc1cc(NC(=O)CCC(=O)N(c2ccccc2C)C(C(=O)NC2CCCC2)c2ccccc2)no1 (centres undefined) | 0.674 | 0.7 | 1.6 | 0.6 | 4.3 | -4.7 | -5.8 | i | -0.4 | 15.5
Cc1c(Cl)cccc1NC(=S)NC(=O)c1cncc(Br)c1 | 0.703 | 0.8 | 2.2 | 7.3 | 3.7 | -1.3 | 4.1 | i | -4.4 | -10.7
O=C(Nc1cccc(-c2ccc(N3CCCCC3)nn2)c1)C(F)(F)F | 0.659 | -14.0 | -0.3 | -4.0 | -0.7 | -1.5 | 24.4 | i | -8.5 | 1.7
O=C1NC(=S)N/C1=C/c1cccc([N+](=O)[O-])c1 | 0.667 | 0.4 | 5.2 | 8.8 | 11.7 | 0.8 | -4.7 | i | 0.4 | -5.8
CC12CCC(O)CC1=CCC1C2CCC2(C)c3[nH]ncc3CC12 (centres undefined) | 0.655 | x | -0.6 | -50.3 | -63.7 | -1.7 | x | i | 1.0 | x
CCOC(=O)c1cccc(N2C(N)=NC(N)=NC2(C)C)c1 | 0.75 | 0.0 | 5.0 | x | x | x | -8.3 | x | x | 5.0
COc1cc(NC(=O)CCCNC(=O)c2ccc(Cl)cc2)cc(OC)c1OC | 0.667 | 0.0 | 1.0 | 1.9 | 1.3 | -0.9 | 6.2 | i | 1.2 | -8.9
CC(O)Cn1ccccc1=N (centres undefined) | 0.675 | 0.0 | -1.3 | x | x | x | -5.2 | x | x | -0.4
Cc1cc(C)c(NC(=O)CC(=O)c2ccccc2)c(Cl)c1 | 0.707 | 0.8 | 4.8 | 7.0 | 5.1 | -0.6 | -0.7 | i | -1.8 | -8.4
O=C(COC(=O)/C=C/c1cccc(Br)c1)NC1CC1 | 0.661 | -0.1 | 1.2 | 3.3 | 13.8 | -2.9 | 2.4 | i | -5.1 | x
COC(=O)c1ccc(N2CCN(CC(=O)c3ccc(C)cc3)CC2)c([N+](=O)[O-])c1 | 0.663 | -0.5 | 1.1 | -2.6 | -3.4 | 6.0 | 1.7 | i | -0.9 | -0.4
c1ccc(CNCc2ccc3c(c2)OCO3)nc1 | 0.625 | 0.6 | 2.5 | x | x | x | -3.5 | x | x | -9.3
O=C(COC(=O)c1ccc([N+](=O)[O-])s1)NCCc1ccccc1 | 0.628 | 0.1 | 80.5* | -10.1 | -1.8 | 3.7 | -0.3 | x | x | x
CC12CCC(=O)N1C(C(=O)NNC(=O)COc1ccc(Br)cc1)CS2 (centres undefined) | 0.64 | 0.5 | 1.1 | 0.7 | 14.8 | 0.4 | -2.8 | i | 3.4 | 17.0
Cc1csc2c(NC3CCN(Cc4ccccc4)CC3)ncnc12 | 0.682 | 0.6 | 6.8 | 5.5 | -4.6 | 1.1 | x | i | -0.7 | 42.7
O=S(=O)(c1cc(Cl)ccc1Cl)N1CCC2(CC1)OCCO2 | 0.735 | 0.3 | 3.3 | 6.0 | 2.0 | -0.6 | x | i | -1.7 | 4.8
CCOc1ccc(C2C(C(=O)/C=C/c3ccco3)=C(O)C(=O)N2CCN2CCOCC2)cc1OC (centres undefined) | 0.692 | 0.7 | 11.1 | 14.5 | 4.3 | 5.9 | -2.4 | i | -2.5 | -7.4
COc1ccc(N2C(=NC(=O)C3CCCCC3)SC3CS(=O)(=O)CC32)cc1OC (centres undefined) | 0.711 | 0.2 | 0.5 | -2.5 | -8.1 | -1.1 | -7.4 | i | -2.6 | -4.1
CCOC(=O)C1CCCN(C(=S)NC(=O)c2cc(Br)ccc2Cl)C1 (centres undefined) | 0.686 | x | 4.7 | 0.7 | -0.1 | 2.1 | x | i | 4.9 | x
CC(C)OP(C)(=O)CN1CCN(CP(C)(=O)OC(C)C)CC1 (centres undefined) | 0.705 | 0.1 | 4.7 | -1.3 | 0.2 | -5.5 | -6.2 | i | 1.0 | -7.2
O=[N+]([O-])c1ccc(N/N=C/c2cccs2)nc1 | x | -1.4 | x | 26.2 | 21.4 | 0.9 | 3.1 | i | -0.9 | 1.5
Cc1cccc(-c2noc(CNC(=O)c3ccc4c(c3)OCO4)n2)c1 | 0.687 | -1.4 | 1.8 | -0.2 | -25.7 | -0.5 | x | i | -1.6 | 15.9
COc1ccc(OC2CCN(S(=O)(=O)c3ccc(C(C)=O)cc3)CC2)cc1 | 0.668 | 0.6 | 0.0 | -9.1 | -8.5 | 2.5 | -8.5 | i | -2.5 | 36.7

Assay outcomes: PubChem, several laboratories

The list is partial; count on the stated rates, not on these rows.
